Compound activity from PubChem.
MT1-MMP act inh: inhibitors of human MT1-MMP activation; P50281; HT1080 RFP-PRO-GFP cells, GFP/RFP ratio fluorescence, overnight; percent of plate control window, DMSO zero; AID 651647; actives 0.061% (n = 360,000); GFP/RFP ratio change, % at 20 µM;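 active means GFP/RFP ratio change of at least 30% with cell ATP level not reduced by more than half and red fluorescence within 50% of control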; further: strong numbers were not always called active
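Compound: 20 µM single dose, 1% DMSO / System: HT1080 RFP-PRO-GFP cells / Controls: DMSO and RFP-L50D-GFP cell wells / Read-out basis: GFP/RFP fluorescence ratio / Schedule: overnight compound exposure at 37 °C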
HIV Env fusion: blocks HIV Env-driven cell-cell fusion | actives 1.1% (n = 360,000) | inhibition, % at 12.3 µM | HeLa-JRFL Env/CEM21 cell fusion, luciferase | AID 651610;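 active means mean replicate inhibition score of at least 50 and every replicate individually at or above 50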;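 further: 0% = plate neutral controls and 100% = maraviroc near 300 nM; one replicate is shown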
MT1-MMP act inh RFP: second read-out of MT1-MMP act inh, no call of its own (marks repeat the call); RFP signal change, %; measured here: RFP expression control read;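 0 = vehicle wells; hits needed this value within 50% of zero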
Active calls of the source: *; & = joins results of further samples; [ ] = remark or other dose.

The line under a structure holds: MT1-MMP act inh | MT1-MMP act inh RFP | HIV Env fusion
> COc1ccccc1-c1cccc(-c2nc(C(=O)Nc3nccs3)cc3c2[C@H](CCO)N(C(C)=O)C3)c1
→ 8 | 2 | -11
> C=CCn1c(-c2ccccn2)n[nH]c1=S
→ 1 | 5 | 6
> CC(C)C[C@H]1CN(CCCC[C@H]2CNC(=O)C(=O)N2Cc2ccccc2)C(=O)C(=O)N1CCc1ccccc1
→ 1 | 3 | -32
> CN(C)CCC(=O)N1C/C(=C/c2ccccc2)C(=O)/C(=C\c2ccccc2)C1
→ -10 | -30 | 75*
> COc1cccc(-c2oc3c(c2C(=O)OCCN(C)C)C(O)CCC3)c1 (configuration not stated)
→ 2 | 2 | -372
> COc1ccc(CCNC(=O)c2ccc(Br)o2)cc1Br
→ 6 | -4 | 3
> CCOC(=O)C(=O)NC1CC=CCC1c1ccc2c(c1)OCO2 (configuration not stated)
→ -1 | 0 | -7
> Cc1ccccc1NC(=O)COC(=O)c1ccc(S(=O)(=O)N2CCCCCC2)cc1
→ -2 | 1 | -1
> COCCCN(C(=O)C1=COCCO1)c1c(N)n(Cc2ccccc2)c(=O)[nH]c1=O
→ -6 | 7 | -3
> CCOC(=O)[C@]12CCCC=C1N(Cc1ccco1)C(=O)[C@H](CC(=O)NCCC(C)C)C2
→ 2 | -4 | 9
> CN(C)c1ccc(/C=C2/C[N+](C)(C)C/C(=C/c3ccc(N(C)C)cc3)C2=O)cc1
→ -11 | 51 | -14
> CC1CCCCC12NC(=O)N(CC(=O)Nc1ccc(Cl)c(S(=O)(=O)N3CCOCC3)c1)C2=O (configuration not stated)
→ 1 | -4 | 1
> CC(=O)N1CCN(c2ccc(Oc3nc(-c4ccccc4)nc4ccccc34)cc2)CC1
→ 0 | -5 | -6
> Cc1ccc(S(=O)(=O)N2[C@H](CC(=O)c3cccs3)OC[C@@H]2C)cc1
→ 1 | -3 | -5
> O=C(O)c1ccc(Oc2nc3ccccc3s2)cc1
→ -2 | 2 | -21
> Nc1c(-c2ccc(C(F)(F)F)cc2)nc2ncccn12
→ 0 | 0 | -27
> CC(C)(C)CC(C)(C)n1nnnc1N
→ 0 | 3 | -6
> CCCCNC(=O)OC1CC2CC1[C@H]1CCCCN1C2=O (some centres not stated)
→ 5 | 7 | -22
> Cc1cccc(C)c1NC(=O)CN1CCN(C(=O)c2ccc(OCc3cn4ccccc4n3)cc2)CC1
→ 7 | -6 | -6
> O=C(NCc1ccc2c(c1)OCO2)OCc1ccccc1
→ -1 | 5 | -5
> CCOC(=O)N1CCN(C(=O)C[C@@H]2C[C@@]3(C(=O)OCC)CCCC=C3N(Cc3ccc4c(c3)OCO4)C2=O)CC1
→ 4 | 0 | -64
> COc1ccc(C(C#N)CC(=O)c2ccc(OC)c(OCc3ccccc3)c2)cc1OC (configuration not stated)
→ 7 | -27 | 29
> CC1(c2nnnn2-c2ccc3c(c2)OCCO3)CCC(=O)N1CCOc1ccccc1 (configuration not stated)
→ 4 | 6 | 0
> CCOC(=O)c1c(CN2CCNCC2)nc2ccc(Cl)cc2c1-c1ccccc1
→ -13 | -8 | 11
> CC1(C(=O)NCCc2c[nH]c3ccccc23)CCN1CC1CCCCC1 (configuration not stated)
→ 4 | 0 | 0
> COC(=O)[C@@]1(Sc2ccc(C)cc2)CC(=O)N[C@@H]1c1ccco1
→ 3 | 1 | -10
> CCOc1cc2c(cc1O)CCC1C2CCC2(C)C(O)CCC12 (configuration not stated)
→ 13 | -1 | -197
> Nc1ccc2c(c1)-c1ccc(F)cc1C2=O
→ 3 | 0 | -13
> CC1=C(C(=O)N2CCOCC2)CC(CC(=O)NC2CC2)C(=O)N1Cc1ccccc1 (configuration not stated)
→ 10 | -2 | 38
> COC(=O)C1=CN(c2ccc(F)cc2)C(N)=C(C#N)C1c1cccc(F)c1 (configuration not stated)
→ 2 | -11 | 9
> O=c1[nH]c(=S)[nH]c2c1C(c1ccc(Cl)c(Cl)c1)OC(CCc1ccccc1)C2 (configuration not stated)
→ 0 | -8 | 7
> Cc1ccc(-c2nnc(-c3ccc4ccccc4c3)o2)cc1
→ -5 | 2 | -12
> Nc1ccn(C2C=CC(CO)O2)c(=O)n1 (configuration not stated)
→ 8 | 8 | 4
> Cc1cccc(C)c1NC(=O)C1(C)CSCC(=O)N1CCc1c[nH]c2ccccc12 (configuration not stated)
→ 4 | 4 | -15
> Cc1cccc(NC(=O)Cc2nc(-c3c[nH]c(C(=O)N4CCCC4)c3)cs2)c1
→ -4 | -8 | 28
> COC(=O)[C@]12CCCCC=C1N(CCC1=CCCCC1)C(=O)[C@H](CC(=O)NCc1ccccc1)C2
→ -1 | -3 | 22
> CCOc1ccccc1C(=O)N[C@H](C(=O)OCC(=O)Nc1nnc(-c2ccccc2)o1)C(C)C
→ 1 | 3 | -17
> C#CCn1c2ccccc2c(=O)n1CCOc1ccccc1OC
→ 2 | 3 | 4
> COC1=CC(=O)C(C2CC(=O)c3c(O)cc(O)cc3O2)=CC1=O (configuration not stated)
→ -2 | 2 | -20
> Cc1ccc(S(=O)ONc2cccc(NOS(=O)c3ccc(C)cc3)c2)cc1 (configuration not stated)
→ -3 | 2 | 3
> OC(Cc1cccnc1)c1ccccc1 (configuration not stated)
→ -2 | 1 | -6
> Cc1cccc(NC(=O)c2cccc([N+](=O)[O-])c2O)c1C
→ 21 | -22 | -55
> Cc1ccc(S(=O)(=O)N2[C@H](CC(=O)OCc3ccccc3)OC[C@@H]2C(C)C)cc1
→ 5 | 1 | -9
> N#Cc1cccnc1N1CCN(C(C(=O)NC2CCCC2)c2ccco2)CC1 (configuration not stated)
→ -3 | 1 | -28
> CC1=CC(=O)Nc2ccccc2S1
→ -27 | 7 | 1
> O=C1c2ccccc2C(c2nnnn2Cc2ccccc2)N1Cc1ccc(F)cc1 (configuration not stated)
→ 3 | 6 | 26
> CCOC(=O)c1cc(-c2sc(NC(=O)c3ccccc3)nc2C)n(-c2ccc(Br)cc2)n1
→ -17 | -20 | -9
> O=[N+]([O-])c1ccc(CS(=O)c2ccccc2)cc1 (configuration not stated)
→ 4 | -3 | 7
> COc1ccc(Cl)cc1C=CC=Nc1ccc(S(N)(=O)=O)cc1
→ -4 | -2 | 3
> CCOC(=O)CC1(C)Oc2cc(Cl)ccc2N1S(=O)(=O)c1ccc(C)cc1 (configuration not stated)
→ 0 | -12 | 8
> O=[N+]([O-])c1ccc(-c2nc(Cl)c3c(n2)CCCC3)o1
→ -5 | 2 | 19
> CCOP(=O)(OCC)C(Cc1ccccc1)N=C(c1ccccc1)c1ccccc1 (configuration not stated)
→ -9 | -8 | 36
> CC(C)(C)NC(=O)C1c2ccccc2OCC(=O)N1CCc1ccccc1 (configuration not stated)
→ 3 | 4 | -33
> CCOC(=O)C1CCCN(C(=O)c2ccc(F)c(Cl)c2)CC1 (configuration not stated)
→ 3 | 2 | -33
> COc1ccccc1-c1noc2c1C(=O)N(Cc1cn(-c3ccccc3OC)nn1)CC2
→ 2 | -2 | -70
> Oc1ccccc1CC=NC1CCCCC1
→ 2 | 4 | 26
> CC(C)c1cc(Cn2c3ccccc3c(=O)n2C(C)Cn2cc(-c3ccc(C(C)(C)C)cc3)nn2)on1 (configuration not stated)
→ -2 | -7 | 21
> O=C(NC1CCCC1)C(C1CC1)n1c(-c2ccccn2)nc2ccccc21 (configuration not stated)
→ 5 | 5 | -5
> COC(=O)C1=CN(c2ccc(Oc3ccccc3)cc2)C(N)=C(C#N)C1c1cccc(OC)c1OC (configuration not stated)
→ -2 | -9 | 11
> CC1=C(C(=O)N2CCCCCC2)CC(CC(=O)NC2CCCCC2)C(=O)N1Cc1ccc(F)cc1 (configuration not stated)
→ 4 | 5 | 23

Sorted by value in MT1-MMP act inh RFP (largest number first): three from the list above
SMILES | MT1-MMP act inh | MT1-MMP act inh RFP | HIV Env fusion
Oc1ccccc1CC=NC1CCCCC1 | 2 | 4 | 26
O=[N+]([O-])c1ccc(-c2nc(Cl)c3c(n2)CCCC3)o1 | -5 | 2 | 19
COC(=O)C1=CN(c2ccc(Oc3ccccc3)cc2)C(N)=C(C#N)C1c1cccc(OC)c1OC (configuration not stated) | -2 | -9 | 11

A second format for some results above:
Oc1ccccc1CC=NC1CCCCC1
  MT1-MMP act inh: 2; MT1-MMP act inh RFP: 4; HIV Env fusion: 26

CC(C)c1cc(Cn2c3ccccc3c(=O)n2C(C)Cn2cc(-c3ccc(C(C)(C)C)cc3)nn2)on1 (configuration not stated)
  MT1-MMP act inh: -2; MT1-MMP act inh RFP: -7; HIV Env fusion: 21

The list goes on:
Molecule | MT1-MMP act inh | MT1-MMP act inh RFP | HIV Env fusion
Cc1cc(NC(=O)OC(C)(C)C)c(-n2nnnc2C(C(=O)c2ccc3c(c2)OCO3)N2CCN(c3ccccn3)CC2)cc1C (configuration not stated) | -12 | -10 | -15
Nc1nc(=O)n(C2CC(O)C(CO)O2)cc1F (configuration not stated) | -8 | -9 | 53
CCCCCCn1cc(CN2CC(N3CCN(C)CC3)CS2(=O)=O)nn1 (configuration not stated) | 5 | 5 | -32
CCC(Oc1ccccc1)C(=O)N(CC)CC(=O)NCc1ccc(F)cc1 (configuration not stated) | -2 | 1 | -1
Cc1c(C(N)=O)cc([N+](=O)[O-])cc1[N+](=O)[O-] | -2 | 4 | 10
Cc1ccc(OCc2nc3ccccc3n2C(C)C(=O)Nc2c(C)cccc2C)cc1 (configuration not stated) | -10 | -11 | -23
CCCCCC1C(=O)N2C=C(c3ccccc3)c3ccccc3N2C1=O (configuration not stated) | 1 | 3 | -6
O=S1(=O)N[C@H](Cc2ccccc2)COc2cccc(N3CCN(Cc4ccccc4F)CC3)c21 | 6 | -2 | -6
O=C(Nc1ccc2c(c1)OCCO2)C(c1ccncc1)n1c(=O)c(-c2cc3ccccc3[nH]2)nc2ccccc21 (configuration not stated) | -6 | -5 | 43
O=C(NCCN1CCC(n2c(=O)[nH]c3ccccc32)CC1)c1cccnc1Cl | 3 | 2 | -2
COC(=O)[C@@]1(C(C)C)N=C(c2cc(OC)c(OC)c(OC)c2)[C@]2(O1)C(=O)N(C)c1ccccc12 | -3 | 1 | 32
COc1ccccc1Cc1c(-c2ccc(C#N)cc2)nc2ccc(C)cn12 | -2 | -6 | -3
COc1ncnc2c1ncn2CCCN1CCN(c2ncccn2)CC1 | 4 | 5 | 4
O=C1c2ccccc2C(c2nnnn2Cc2ccccc2)N1Cc1cccc(F)c1 (configuration not stated) | 5&-3 | -3&-3 | -13&-3
O=C(NCc1ccccc1)C(c1ccc(-c2ccccc2)cc1)N1CCN(c2ccccc2F)CC1 (configuration not stated) | -2 | -5 | -6
CC(C)(C)NCC(=Cc1ccccc1)C(=O)c1ccccc1 | 13 | -29 | -408
O=C(/C=C1\OCc2ccccc21)c1ccccc1 | 0 | 1 | -31
CCC(C(=O)NC1CCCC1)n1c(-c2ccncc2)nc2ccccc21 (configuration not stated) | 7 | 4 | -3
COC(=O)[C@]12CCCCC=C1N(CCC1=CCCCC1)C(=O)[C@H](CC(=O)NCCc1ccccc1OC)C2 | -10 | -12 | -22
C#Cc1ccccc1OCCCN1CCC(C(O)(c2ccccc2)c2ccccc2)CC1 | 3 | -2 | -34
CC1(C)OC2OC3C(CNCCO)OC(c4ccccc4)OC3C2O1 (configuration not stated) | 2 | 5 | 7
O=C(CC(=O)c1ccncc1)c1ccccc1 | 1 | 1 | 2
CC(C)C[C@@H](CN1CCC[C@H]1CN1C(=O)C(=O)NC[C@@H]1Cc1ccccc1)N1C[C@H](Cc2ccccc2)N(CC2CCCCCC2)C(=O)C1=O | -10 | -19 | -8
Cc1ccc(NC(=O)CN2C(=O)NC3(CCCc4ccccc43)C2=O)c(Cl)c1 (configuration not stated) | -1 | -2 | -3
CC(C)NC(=O)C1(C)CN(S(C)(=O)=O)CC(=O)N1Cc1cccc(F)c1 (configuration not stated) | 2 | 5 | 21
CCOC(=O)[C@]12CCC=C1N(Cc1cccc3ccccc13)C(=O)[C@H](CC(=O)N1CCOCC1)C2 | -4 | -7 | -47
COCCN1C(=O)COc2ccccc2C1C(=O)NC1CCCC1 (configuration not stated) | 6 | -1 | -1
CCOC(=O)c1noc2c1CCC2 | 2 | 10 | 24
Cc1ccc(-c2nc3cc(C)c(Br)c(C)n3c2CC2CCCCC2)cc1 | -2 | -17 | 3
c1nc(SSc2ncnc3nc[nH]c23)c2[nH]cnc2n1 | 26 | 23 | -6
Oc1ccccc1C=NN=Cc1c(O)ccc2ccccc12 | -51 | -1 | -94
COC(=O)[C@@]1(Cc2ccc(F)cc2)[C@H]2c3cc(C(=O)N(C)C)n(CCF)c3C[C@H]2CN1C(=O)c1ccccc1 | -1 | 0 | -33
CC1(O)CC2CC1C(C(=O)O)C2C(=O)O (configuration not stated) | 3 | 2 | -62
O=C(O)c1cccc2c1-c1ccc([N+](=O)[O-])cc1C2=O | 5 | 4 | -57
COC(=O)[C@@]1(Cc2ccc(OC)cc2)[C@H]2c3cc(C(=O)N4CCCC4)n(Cc4ccc(C)c(F)c4F)c3C[C@H]2CN1C(=O)c1ccccc1 | -30 | -28 | -43
Clc1ccc(C(c2cccs2)N2CCNCC2)cc1 (configuration not stated) | -11 | -4 | 21
C[C@H]1CCCCO[C@H](CN(C)Cc2ccccc2)[C@@H](C)CN([C@@H](C)CO)C(=O)c2cc(NC(=O)CCC(F)(F)F)ccc2O1 | 4 | 5 | -12&4[16.7 µM]
c1ccc(-c2nnnn2-c2ccccn2)cc1 | 4 | 1 | 7
Cc1ccc(C2=C(O)C(=O)C(c3ccc(C)cc3)=C(O)C2=O)cc1 | -3 | 1 | -50
O=C(Nc1ccn(C2CCC(CO)O2)c(=O)n1)c1ccccc1 (configuration not stated) | 2 | 5 | -4
COC(=O)CC1(CC(N)=O)SCCS1 | 1 | 4 | -18

A portion of the library; the hit share may differ from the screen's.
